Vif A3G: HIV-1 Vif–A3G interaction blockers – biochemical, TR-FRET, GST-Vif 1-94, biotin-A3G peptide, dose response retest, primary screen (AID 1117319). hit rate 0.57% among 260,000. TR-FRET GST-Vif / biotin-A3G peptide binding; higher % means a stronger effect; test concentration not given here; strong numbers were not always called active. inhibition, %; hits with a dose series show IC50 in µM;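 active means above the screen mean plus three standard deviations and confirmed in dose response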;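 further: Vif residues 1-94 fused to GST binding biotinylated APOBEC3G peptide 110-148; 0% = full assay without inhibitor and 100% = GST in place of GST-Vif; retest series ran down from 100 µM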
HNF4A DNA FP: change in binding of human HNF4 alpha to DNA; HNF4a-FITC DNA binding, fluorescence polarization, 1 h; activity change, % at 10 µM; hit rate 0.3% among 360,000; in the data active means activity change above about 30%, passing the limit was not always enough;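 further: controls were the assay level and a saturating level of protein; the project sought stronger binding though the title names inhibitors; some compounds called inactive have numbers as strong as hits; positive values seem to mean higher polarization but the record does not say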
Target sequence (P41235 whole entry, looked up): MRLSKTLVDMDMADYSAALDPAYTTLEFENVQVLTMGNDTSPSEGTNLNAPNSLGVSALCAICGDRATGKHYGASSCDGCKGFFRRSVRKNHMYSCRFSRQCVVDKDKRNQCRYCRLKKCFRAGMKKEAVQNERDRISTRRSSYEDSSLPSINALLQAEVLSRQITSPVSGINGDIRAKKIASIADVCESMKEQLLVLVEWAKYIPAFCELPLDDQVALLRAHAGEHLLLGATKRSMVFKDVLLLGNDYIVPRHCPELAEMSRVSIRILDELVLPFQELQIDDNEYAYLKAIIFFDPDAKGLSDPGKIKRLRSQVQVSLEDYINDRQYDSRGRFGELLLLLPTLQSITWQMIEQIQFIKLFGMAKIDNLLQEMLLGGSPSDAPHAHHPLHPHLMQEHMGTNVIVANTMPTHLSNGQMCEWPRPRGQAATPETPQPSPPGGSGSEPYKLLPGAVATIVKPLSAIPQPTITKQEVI
An asterisk follows results filed as active; i = inactive.

The line under a structure holds: Vif A3G, HNF4A DNA FP
C[C@@H]1CCCCO[C@@H](CN(C)C(=O)Cc2ccccc2)[C@@H](C)CN([C@H](C)CO)C(=O)c2cc(NC(=O)C3CCCCC3)ccc2O1
  0%, -0.5
C[C@H]1CN([C@@H](C)CO)C(=O)CCCn2nncc2CO[C@@H]1CN(C)C(=O)Nc1ccc(N2CCCCC2)cc1
  2%, 0.1
CC(C)(C)Cc1c(-c2ccc(Br)cc2)nc2ccc(Br)cn12
  -2%, 1.7
O=P(C(=S)Nc1ccccc1Cl)(c1ccccc1)c1ccccc1
  0%, 2.2
Cc1ccc(S(=O)(=O)N2CC3(O)CN(C(=O)OC(C)C)N(C(=O)OC(C)C)CC3(OC(=O)Nc3c(C)noc3C)C2)cc1 (stereo unspecified)
  -6%, -0.1
C[C@@H]1CN([C@@H](C)CO)C(=O)CCCn2nncc2CO[C@@H]1CN(C)S(=O)(=O)c1cn(C)cn1
  -3%, -3.0
Cc1ccc(C(=O)N[C@H](C(=O)Nc2cccc(S(=O)(=O)N3CCOCC3)c2)C(C)C)cc1
  -1%, 0.9
C[C@H](O)[C@@H]1C(=O)N2CCc3ccc(-c4ccccc4)cc3[C@@H]2C[C@@H]1N(C)C(=S)Nc1ccc(F)cc1
  -8%, -3.3
O=C1C(=Cc2ccccn2)CCc2ccccc21
  -3%, -4.7
O=C(CN1C(=O)c2cccc([N+](=O)[O-])c2C1=O)N1CCc2ccccc2C1
  -3%, 1.2
COc1cccc(CNC(=O)c2ccc(CS(=O)Cc3ccccc3Cl)o2)c1 (stereo unspecified)
  3%, -2.5
C[C@H](CO)N1C[C@H](C)[C@H](CN(C)C(=O)C2CC2)OCc2cnnn2CCCC1=O
  3%, -5.9
CC(C)(C)OC(=O)N1Cc2cc3ccccc3nc2C1
  4%, 2.7
CSc1ncnc2c1ncn2CCCN(C)CCc1ccccn1
  -2%, 0.2
CCc1noc(C)c1C(=O)N1CCN(c2cccc(Cl)c2)CC1
  2%, 3.0
C[C@@H]1CN([C@H](C)CO)C(=O)CCCn2nncc2CO[C@H]1CN(C)Cc1ccc2c(c1)OCCO2
  -4%, 0.8
COCOCCn1cc(CN2CCS(=O)(=O)N(Cc3ccc(-c4ccc(Cl)nc4)cc3)C(C(C)C)C2=O)nn1 (stereo unspecified)
  -2%, -0.9
C[C@@H]1CN([C@@H](C)CO)C(=O)CCCn2nncc2CO[C@H]1CN(C)S(=O)(=O)c1ccc(Oc2ccccc2)cc1
  9%, 3.2
CC1=C(C(=O)N(C)C)CC(CC(=O)NCC2CCCCC2)C(=O)N1Cc1ccccc1 (stereo unspecified)
  0%, -1.0
CCCOc1ccc(C(=O)NC(=S)N2CCN(c3ncc4c(=O)c(C(=O)O)cn(CC)c4n3)CC2)cc1
  -7%, 2.5
Nc1ccn(CCCNCC(c2ccccc2)c2ccccc2)c(=O)n1
  -6%, 3.4
CCc1cc(CNC(=O)C2CCC(=O)N(Cc3ccccc3F)C2)on1 (stereo unspecified)
  -4%, 0.2
COc1ccc(C(=O)OCC(=O)N(Cc2ccccc2)Cc2ccccc2)c(O)c1
  -3%, 0.8
O=C(C=CC=Cc1ccccc1)c1ccc([N+](=O)[O-])cc1
  0%, 1.8
COc1ccccc1C(=O)NNC(=O)c1cc2ccccc2cc1O
  3%, -2.2
CCCC#Cc1cnc2c(c1)C(=O)N([C@H](C)CO)C[C@H](C)[C@@H](CN(C)C(=O)CCN1CCCCC1)O2
  10%, 1.4
CCCCCCn1c(=O)n2n(c1=O)[C@@H]1CN(S(=O)(=O)c3ccc(C)cc3)C[C@]1(O)[C@@H](OC(=O)NC1CCCC1)C2
  1%, -0.4
C=C(C)CN1C(=O)C(C)SC1=NN=C1SCC(=O)N1C (stereo unspecified)
  8%, -0.9
Cc1noc(C)c1NC(=O)N(C)C[C@H]1OCc2cn(nn2)CCCC(=O)N([C@@H](C)CO)C[C@@H]1C
  -1%, 24
O=[N+]([O-])c1ccccc1NS(=O)(=O)c1ccccc1
  7%, 5.5
C=CCC1(CC=C)CCCN1C(=O)c1ccc2oc(CCCC)nc2c1
  -3%, -1.3
Cc1nc(C(=O)N2CCCC(N3CCN(c4ccc(F)cc4)CC3)C2)cs1 (stereo unspecified)
  -8%, -2.0
CN1CCn2cnc(C(=O)Nc3ccc(CNC(=O)OC(C)(C)C)cc3)c2C1=O
  -1%, -6.1
CCCNC(=O)N(C)C[C@@H]1Oc2cc(Br)ccc2S(=O)(=O)N([C@@H](C)CO)C[C@H]1C
  8%, -1.4
CC(C)C1C(=O)N(Cc2cn(CC3CCCCC3)nn2)CCS(=O)(=O)N1Cc1ccc(-c2ccccc2)cc1 (stereo unspecified)
  4%, -2.3
CC(=O)N1C[C@H]2CON(C)[C@H]2C[C@H]1c1cccc(N2CCOCC2)c1
  1%, -0.5
CN(Cc1ccc2nsnc2c1)C(=O)C1CCC(=O)N(CCc2ccccc2)C1 (stereo unspecified)
  0%, 0.1
Cn1ncc([N+](=O)[O-])c1C(=O)Nc1cc(Cl)ccc1Cl
  -5%, 2.5
C[C@H](CO)N1C[C@H](C)[C@@H](CN(C)S(=O)(=O)c2ccccc2)OCCCC[C@H](C)Oc2ccc(NC(=O)CCC(F)(F)F)cc2C1=O
  3%, -2.3
O=C(NCCc1cn2cccnc2n1)C1CCC(=O)N(Cc2ccccc2F)C1 (stereo unspecified)
  1%, 1.0
COc1ccccc1NC(=O)c1oc2ccccc2c1C
  -8%, -4.5
CCN(CC)S(=O)(=O)c1ccc(OC)c(NC(=O)c2cc([N+](=O)[O-])ccc2N2CCOCC2)c1
  1%, -1.5
O=C1c2[nH]c3ccccc3c2CC1N1C(=O)c2ccccc2C1=O (stereo unspecified)
  4%, 3.1
C[C@@H]1CN([C@H](C)CO)C(=O)CCCn2nncc2CO[C@@H]1CN(C)C(=O)Nc1cccc2ccccc12
  6%, 2.7
COc1ccc(Cl)cc1Nc1cc(C)nc2ncnn12
  -8%, -2.0
COc1ccc(NC(=O)COC(=O)c2ccc(S(=O)(=O)N3CC(C)CC(C)C3)cc2)cc1OC (stereo unspecified)
  1%, -1.1
Cc1ccc(S(=O)(=O)N2C[C@]3(O)C[C@@H]4C(=O)N(c5ccccc5)C(=O)[C@@H]4C[C@]3(OC(=O)Nc3c(C)noc3C)C2)cc1
  -7%, 1.5
COc1cc2c(cc1OC)C(c1c(-c3c(Cl)cccc3Cl)noc1C)=NCC2
  2%, 4.8
CCn1c(CN2CCC(C)CC2)nc2cc(S(=O)(=O)N3CCCCC3)ccc21
  -3%, 4.8
Cc1nc(SCC(=O)NC2CCCC2)c2oc3ccccc3c2n1
  i, 8.4

Next section:
The line under a structure holds: Vif A3G, HNF4A DNA FP
O=C(NCc1ccco1)c1ccc(OC2CCN(Cc3ccccn3)CC2)cc1
  -2%, 5.1
O=C(c1ccc2ccccc2c1)c1cccc(F)c1C(=O)O
  -10%, 0.6
C[C@@H]1CN([C@@H](C)CO)C(=O)CCCn2nncc2CO[C@@H]1CN(C)C(=O)Nc1ccc(-c2cccs2)cc1
  -5%, -4.4
Cc1ccc([C@@H]2C[C@H]3[C@@H](CN2S(=O)(=O)c2ccc(Cl)cc2)C(=O)C[C@@H](c2ccc(C)cc2)N3S(=O)(=O)c2ccc(Cl)cc2)cc1
  -2%, 1.2
Cc1nc2ccc(Cl)cn2c1[N+](=O)[O-]
  5%, -0.9
Cc1[nH]ccc2cc3nc4ccccc4c3cc12
  -2%, -13
Cc1cc(C)c(C(=O)COC(=O)c2cccc(S(=O)(=O)N3CCOCC3)c2)cc1C
  3%, 1.2
C[C@H]1Cn2cnc(C(=O)Nc3ccccc3)c2C(=O)N1
  -1%, -4.0
O[C@@H]1CN(Cc2cccs2)[C@@H](c2ccccc2)C[C@H]1n1cc(-c2ccc(F)cc2)nn1
  3%, -0.4
Cc1ccc([C@H]2C[C@H](O)[C@@H](n3cc(COC(=O)c4ccccc4)nn3)CN2C(=O)C2CCCCC2)cc1
  -3%, 0.2

Remaining list, next part
| SMILES | Vif A3G | HNF4A DNA FP |
| --- | --- | --- |
| CC(C)C(C(=O)O)N1C(=O)C2C3CCC(C3)C2C1=O (stereo unspecified) | 5% | -2.2 |
| O=C(c1cccs1)N1C[C@@H](n2cc(-c3ccc(F)cc3)nn2)[C@H](O)C[C@@H]1c1ccc(Cl)cc1 | -5% | -3.1 |
| CN(c1ccccc1)S(=O)(=O)c1ccc(C(=O)NCc2cccnc2)cc1 | 12% | 3.1 |
| C[C@@H]1CN([C@H](C)CO)S(=O)(=O)c2ccc(Br)cc2O[C@H]1CN(C)C(=O)Cc1ccccn1 | 0% | 3.0 |
| COc1ccccc1NC(=O)N(C)C[C@H]1Oc2cc(Br)ccc2S(=O)(=O)N([C@H](C)CO)C[C@H]1C | -4% | 0.7 |
| CCCCN1C(=O)C(CC(=O)NCc2cccs2)CC(C(=O)N2CCOCC2)=C1C (stereo unspecified) | 3% | -3.2 |
| COCCN(C(=O)COC(=O)c1ccc(Br)o1)c1c(N)n(Cc2ccccc2)c(=O)[nH]c1=O | 5% | 0.4 |
| CCOC(COC(=O)c1ccccc1C(=O)O)c1ccccc1 (stereo unspecified) | 5% | 1.4 |
| O=C(NCCS(=O)(=O)N1CCN(c2ccccc2)CC1)c1cc(=O)c2ccccc2o1 | 1% | 2.8 |
| CCCc1nn2c(-c3ccccc3)nnc2o1 | 1% | 0.5 |
| N#Cc1ncn(C2OC(CO)C(O)C2O)c1N (stereo unspecified) | 0% | 1.1 |
| C[C@H](CO)N1C[C@H](C)[C@@H](CN(C)C(=O)c2ccc(F)cc2)Oc2cc(Br)ccc2S1(=O)=O | -1% | -6.9 |
| CC(C)Oc1ccc(S(=O)(=O)N2CCCCC2)cc1NC(=O)C1=NN(c2ccccc2)C(=O)CC1 | -8% | 3.5 |
| O=C(CN1C(=O)CSc2ccc(S(=O)(=O)N3CCOCC3)cc21)NCCc1ccccc1 | -1% | -1.8 |
| Cc1ccc(C=Cc2ccccn2)cc1 | -2% | 2.5 |
| CC(=O)c1ccc(S(=O)(=O)NCCOc2ccccc2)cc1 | -5% | -2.5 |
| CCOc1ccccc1NCN1C(=O)c2ccccc2C1=O | -5% | 7.2 |
| Cc1c(-c2ccccc2)n(O)c(-c2ccc(N(C)C)cc2)[n+]1[O-] | -2% | -1.6 |
| CC(NS(=O)(=O)c1ccc2[nH]c(=O)[nH]c2c1)c1ccc(F)cc1 (stereo unspecified) | -2% | 0.8 |
| C[C@@H]1CN([C@H](C)CO)C(=O)c2c(c3ccccc3n2C)-c2ccccc2CO[C@H]1CN(C)Cc1ccc(Oc2ccccc2)cc1 | 2% | 2.0 |
| Nc1ccc(S(=O)(=O)c2ccc(N3CCOCC3)c(N)c2)cc1 | -3% | -6.7 |
| Cc1cccc2c(=O)n(C(=O)c3ccccc3)c(N)nc12 | 7% | 1.1 |
| C[C@H](CO)N1C[C@H](C)[C@@H](CN(C)S(=O)(=O)c2ccccc2C#N)OCc2cnnn2CCCC1=O | 0% | 1.5 |
| O=C(c1ccccc1)c1ccsc1C(=O)c1ccccc1 | 5% | -3.9 |
| Nc1ccccc1-c1nc2ccncc2[nH]1 | -3% | 0.5 |
| COc1ccc(NC(=O)C[C@H]2C(=O)N(c3ccccc3)C[C@@H]2Cc2ccccc2)cc1 | 6% | 3.2 |
| CCN(CC)C(=O)C1=C(C)N(Cc2ccccc2)C(=O)C(CC(=O)NCC2CCCCC2)C1 (stereo unspecified) | -7% | 3.3 |
| CCOc1ccc(OCC(=O)NCCS(=O)(=O)N2CCN(c3ccccc3)CC2)cc1 | -2% | -1.6 |
| C/C=C/c1cnc2c(c1)C(=O)N([C@@H](C)CO)C[C@H](C)[C@@H](CN(C)S(=O)(=O)c1ccc(C)cc1)O2 | 13% | -3.3 |
| COc1ccccc1NC(=O)N(C)C[C@@H]1Oc2ncc(Br)cc2C(=O)N([C@H](C)CO)C[C@@H]1C | 1% | -0.6 |
| Cc1cccc(C)c1NC(=O)C(C)NCc1cccs1 (stereo unspecified) | 4% | 1.1 |
| Cc1cc(OCC(=O)Nc2c(C(C)C)cccc2C(C)C)no1 | 3% | 3.4 |

No new results follow: five of the compounds above.
| SMILES | Vif A3G | HNF4A DNA FP |
| --- | --- | --- |
| CCOc1ccc(OCC(=O)NCCS(=O)(=O)N2CCN(c3ccccc3)CC2)cc1 | -2% | -1.6 |
| C/C=C/c1cnc2c(c1)C(=O)N([C@@H](C)CO)C[C@H](C)[C@@H](CN(C)S(=O)(=O)c1ccc(C)cc1)O2 | 13% | -3.3 |
| COc1ccccc1NC(=O)N(C)C[C@@H]1Oc2ncc(Br)cc2C(=O)N([C@H](C)CO)C[C@@H]1C | 1% | -0.6 |
| Cc1cccc(C)c1NC(=O)C(C)NCc1cccs1 (stereo unspecified) | 4% | 1.1 |
| Cc1cc(OCC(=O)Nc2c(C(C)C)cccc2C(C)C)no1 | 3% | 3.4 |

(more compounds)
| SMILES | Vif A3G | HNF4A DNA FP |
| --- | --- | --- |
| COc1ccc(C(=O)Nc2ccccc2C(=O)Nc2ccccc2)cc1 | -1% | -4.5 |
| Cc1ccc(S(=O)(=O)NCC(=O)NCC(=O)N(C)Cc2ccc(Br)s2)cc1C | -6% | -1.5 |
| CCN(CC(=O)Nc1ccccc1C(F)(F)F)C(=O)c1ccc2c(c1)NC(=O)C(C)S2 (stereo unspecified) | -3% | 1.0 |
| CCCCN(C(=O)CC1CCCCC1)c1c(N)n(CCCC)c(=O)[nH]c1=O | -4% | -1.7 |
| CCCN(CC(=O)Nc1ccccc1OC)C(=O)CN1C(=O)NC(C)(C)C1=O | -4% | 1.2 |
| C[C@H](NC(=O)c1ncn2c1C(=O)NC[C@@H]2C)c1ccccc1 | 5% | 5.3 |
| CC(OC(=O)Cc1n[nH]c(=O)c2ccccc12)C(=O)N(C)c1ccccc1 (stereo unspecified) | 1% | -4.3 |
| CSc1ncnc2c1ncn2CCCNCc1cccs1 | 5% | -0.4 |
| COc1cc2ccc(C(C)=NOC(C)=O)cc2cc1OC | 3% | -1.9 |

Not all compounds are listed; rates above refer to the full screens.
